NPYLR7 agonist: mosquito NPYLR7 agonism. HEK293T NPYLR7/Galpha15, GCaMP6s calcium fluorescence. activation, % at 10 µM. 270,000 tested, 0.15% active. AID 1259423; in the data active means activation above about 40%;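 further: 0% = vehicle and 100% = reference agonist at the receptor; some compounds past the cut are filed as inactive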
NPYLR7 agonist max-min: second read-out of NPYLR7 agonist, no call of its own (marks repeat the call); activation, %; measured here: Max-Min RFU normalised activation; some inactives read as strong as hits;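 span of the calcium signal over five minutes; 0% = vehicle and 100% = native peptide agonist; compound fluorescence can raise it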
Starred values were filed as active, the others as inactive; & = joins results of further samples. A portion of the library; rates above refer to the full screens.

SMILES	NPYLR7 agonist	NPYLR7 agonist max-min
c1cncc(-c2nc3c(c(N4CCCC(Cn5ccnc5)C4)n2)CNC3)c1 (stereo not given)	3.6	0.0
COC(=O)c1cc(C(=O)N2CCOC(c3ccc(Cl)c(Cl)c3)C2)n(C)n1 (stereo not given)	0.2	-0.5
COc1cc(OC)cc(C2SCCN2C(=O)c2cccc([N+](=O)[O-])c2)c1 (stereo not given)	1.0	5.2
Cc1ccc(Sc2ncccc2C(=O)NCC2CCCOC2)cc1C (stereo not given)	-7.5	-6.7
CCOC(=O)C1C(=N)Oc2cc(C)oc(=O)c2C1c1cccc(F)c1 (stereo not given)	-8.0	-14.2
COc1nc(-c2ccc(Cl)c(Cl)c2)n(-c2cccc(NC(=O)c3cccc(F)c3)c2)n1	9.1	12.2
Cc1ccc2c(c1)c(CNC(=O)c1ccc(-n3cnnc3)cc1)nn2C	-6.1	-9.5
COc1ccccc1Cc1nc2c(c(=O)[nH]1)CNCC2	0.0	0.5
CCOC(=O)c1ccc(NC(=O)N2CCc3nc(Cc4ccccc4OC)nc(N4CCOCC4)c3C2)cc1	10.3	14.5
COc1ccc(NC(N)=Nc2nc(CSc3ccc(Cl)cc3)cc(=O)[nH]2)cc1	-14.1	-18.5
CCOC(=O)c1nn(CC)c2c1CN(C(=O)c1cccc(-c3ccc(F)cc3)c1)CC2	6.0	-2.3
CN(CC(=O)NNC(=O)COc1ccc(Cl)cc1)C1CCCCC1	9.0	6.0
N#Cc1ccc(-c2ccc(OCC(=O)NNC(=O)c3ccc[nH]c3=O)cc2)cc1	8.9	9.6
O=C(C(N=Nc1ccccc1)=C(O)c1ccccc1)c1ccccc1	-3.0	-5.1
CC(C)N(C(=O)N1CCC2(CC1)CNC(=O)C2)C(C)C	-20.4	-20.0
CCc1nc2c(OCC(=O)c3ccc(F)cc3)cccn2c1N(C)C(=O)CC(C)C	2.4	8.5
CC(C)c1cccc(C(C)C)c1OCCOCCn1cnc2ccccc2c1=O	-5.8	17.9
c1ccc(Cn2cc(-c3cccc4c3CCNC4)cn2)cc1	22.6	11.1
C=c1occc1=C1NN=C(SCC(=O)N(C)C(C)c2ccccc2)O1 (stereo not given)	19.6	17.1
Cc1ccc(C(C)NS(=O)(=O)N2CCCCCC2)o1 (stereo not given)	-17.1	-20.1
COc1cccc(-n2c(SCc3ccccc3Cl)nc3c(c2=O)SCC3)c1	-4.0	-8.1
COc1ccc(OC)c(C2SCC(=O)N(CC(=O)NCC3CCCO3)c3c2c(-c2ccccc2)nn3C(C)(C)C)c1 (stereo not given)	18.3	8.5
CCCN(CC(=O)NC)S(=O)(=O)c1c(C)noc1C	13.4	7.7
COc1cc(/C=C/CN2CCC(N3CCC(C(=O)NC4CC4)CC3)CC2)ccc1O	2.1	0.4
CCCCN(CC(=O)N(CCc1ccc(OC)c(OC)c1)Cc1cccs1)S(=O)(=O)c1ccc(Cl)c([N+](=O)[O-])c1	15.6	20.2

Next results.
SMILES	NPYLR7 agonist	NPYLR7 agonist max-min
Cc1ccsc1C(=O)N(C)CC1CCCN(CCc2ccc(Cl)cc2)C1 (stereo not given)	14.3	9.5
O=c1c2ccccc2nc(-c2cc(C(F)(F)F)ccc2F)n1Cc1ccccc1	6.0	5.4
Cc1ccc(CS(=O)(=O)NCC(c2ccsc2)N(C)C)cc1 (stereo not given)	6.1	-1.9
COCCN(CCC(=O)N1CCOCC1)c1nc(-c2cccs2)nc2ccccc12	-3.2	3.0
COc1ccccc1N1CCN(c2ncnc3sc4c(c23)CCCC4)CC1	-0.2	-0.5
CNC(=O)Cn1cc(NC(=O)C2CC2c2ccc(C)s2)cn1 (stereo not given)	-13.4	-13.5
COC(=O)Cn1c(=O)c2c(nc3n2CCN3c2ccc(C)cc2)n(C)c1=O	0.3	-4.7
O=C(CCCSc1ccc(Cl)cc1)Nc1ncnc2sccc12	-1.4	0.0
O=C(Cn1cnc2c(nnn2Cc2ccc(Cl)cc2)c1=O)c1ccc(Cl)cc1	7.0	6.9
CCc1ccccc1NC(=O)N(CCOC)CC(=O)N(CCc1c[nH]c2ccccc12)Cc1ccc(C(F)(F)F)cc1	28.4	32.6
CCc1ccccc1OC1CN(C(=O)c2nnc(CN(C)C)o2)C1	1.6	-2.4
CC1(C)CC2CC(C)(CN2C(=O)c2cc(-c3ccco3)nn2-c2cccc([N+](=O)[O-])c2)C1 (stereo not given)	-4.5	1.5
CCn1cc(CN(C)C(=O)c2ccc3cccc(F)c3n2)cn1	17.1	14.1
CN1CC(=O)N2CCN(Cc3ccc(C#CCO)s3)CC2C1=O (stereo not given)	-2.0	-2.8
O=C(CSc1nnc(NC(=O)C2C[C@H]2c2ccccc2)s1)c1ccc(F)c(F)c1 (stereo not given in full)	37.5	33.4
CC(=O)c1cccc(NC(=O)c2cncn2-c2ccccc2)c1	-2.2	-3.1
CCOCc1ccccc1CNC(=O)N(C)Cc1cccc(F)c1	-3.0	-4.2
Cc1cc(NC(=O)C(C)N(C)Cc2ccc(Cl)c(Cl)c2)on1 (stereo not given)	11.2&1.5	8.2&4.8
Cc1ccc(COC2CCCNC2)cc1 (stereo not given)	17.3	19.1
CCN1CCN(c2c(CN(CCCOC)C(=O)c3cccc([N+](=O)[O-])c3)c(C)nn2-c2ccccc2)CC1	1.4	7.2
Clc1ccc2oc(Nc3ccc4oc5ccccc5c4c3)nc2c1	0.7	0.9
Cc1c(C)n2c3c(=O)n(CCCc4ccccc4)c(=O)n(C)c3nc2n1CCCn1ccnc1	-5.2	-7.9
Cc1ccc(S(=O)(=O)Nc2ccc(Nc3nc(C)cc(N4CCOCC4)n3)cc2)c(C)c1	8.7	2.4
Cc1[nH]cnc1-c1nccn1CCc1ccccc1Cl	-0.4	-5.6
Cn1c(=NC(=O)C2=COCCO2)sc2cc(Cl)cc(Cl)c21	-0.5	59.1

(list continues)
SMILES	NPYLR7 agonist	NPYLR7 agonist max-min
Cc1nc(C)c(C(=O)N2CC[C@H](CO)[C@H](O)C2)s1	9.1	5.5
C=c1occc1=C1NN=C(SCC(=O)c2cc(C)n(C)c2C)O1	30.1	30.4
Cc1c(Cc2ccc3ccccc3n2)c2cc(F)ccc2n1CC(=O)O	29.7	16.9
CCC(C)N(Cc1cccnc1)C(=O)CCSC (stereo not given)	7.2	4.9
Cc1nnc(-c2cccc(NC(=O)C3CCN(C(=O)c4ccnn4C)CC3)c2)s1	-0.4	-2.4
CCC(C(=O)Nc1ccc(-n2nc(OC)nc2-c2ccc(C)cc2)cc1)c1ccccc1 (stereo not given)	27.0	28.9
CCOc1ccc(S(=O)(=O)NCc2ccco2)cc1C(C)C	1.7	6.7
Cc1ccc2[nH]nc(C(=O)N3CCOC(CCCC(C)C)C3)c2c1 (stereo not given)	-1.4	-6.0
CCOC(=O)C1C(C)=NC2=C(C(=O)CC(C)(C)C2)C1c1ccco1 (stereo not given)	19.9&-3.2	16.7&-3.6
N#CC1C(=N)Oc2n[nH]c(-c3cccc([N+](=O)[O-])c3)c2C1c1ccccc1C(F)(F)F (stereo not given)	-4.8	-9.0
CC(SC1=Nc2ccccc2C2CC=NN12)C(=O)Nc1ccccc1 (stereo not given)	-10.9	-14.0
Nc1n[nH]c2ccc(-c3cccc4cnccc34)cc12	3.3	0.6
CN(C)c1ccc(-c2ccnc3c2CC(C)(C(=O)NCC2CCOCC2)O3)cc1 (stereo not given)	-2.4	-4.7
COc1ccc(-n2nnc3c(SCc4ccc(Cl)cc4)ncnc32)cc1	13.1	12.7
CC1CN(C(=O)Cn2cc(SCC(=O)NC3CCCCC3)c3ccccc32)CC(C)O1 (stereo not given)	-6.1	-11.1
Cn1cnnc1SCc1cc(=O)c(OCc2ccc(Cl)cc2)co1	9.9	6.2
NC(=O)Cn1cnc2c(nnn2Cc2ccccc2)c1=O	8.3	7.0
Clc1ccc(CCNc2ncnc3[nH]ncc23)c(Cl)c1	2.0	1.2
CCN1CCCC(NC(=O)c2cc(NC)ccc2OC)C1 (stereo not given)	-5.1	-6.6
O=C(Nc1ccc2c(c1)CN(Cc1ccc(-c3ccn[nH]3)o1)CC2)C1CCCO1 (stereo not given)	7.6	6.5
CCOc1cccc(N2CCN(Cc3c(F)cccc3F)C(C)C2=O)c1 (stereo not given)	25.1	24.4
CC(C)CN(C[C@@H](O)[C@H](Cc1ccccc1)NC(=O)O[C@H]1CCOC1)S(=O)(=O)c1ccc(N)cc1	-13.8	-21.5
COc1ccc(OC(C)C)c(NCc2cc(C)on2)c1	-1.5	-4.4
COc1ccc(CN(C)C(=O)Nc2ccc(C)c(NC(C)=O)c2C)cc1O	4.0	-2.0
Cc1c(C(=O)NCc2cccc(Cl)c2)sc(=O)n1CCC#N	7.8	0.7

Next section:
SMILES	NPYLR7 agonist	NPYLR7 agonist max-min
C=C(C)CN1CCN(c2nc3c(c(=O)[nH]c(=O)n3C)n2CCc2ccccc2)CC1	0.5	-0.2
O=C(CCc1ccc(O)c(O)c1)NNC(=S)Nc1ccccc1C(F)(F)F	-14.1	-19.8
O=C(NCc1ccco1)c1nn(-c2ccccc2F)c(=O)n(Cc2cccc(Cl)c2)c1=O	16.5	28.8
O=C(CN(CC1CCCO1)C(=O)c1ccc(-c2ccccc2)cc1)N(Cc1ccc2c(c1)OCO2)Cc1ccco1 (stereo not given)	-8.5	-10.8
CCOc1ccc(SCC(=O)Nc2ccc(-n3cnnn3)cc2)cc1	7.5	3.1
C=CCOC(=O)C1=CS(=O)(=O)c2ccccc21	11.8	5.2
O=C(CCC1CCN(C(=O)C2CCCO2)CC1)N1CCN(c2ccccc2)CC1 (stereo not given)	4.9	0.3
COc1ccc(-n2cnnn2)c(OC)c1	1.1	5.8
Cc1ccc(C)c(OCC(=O)N2CCCCC2CCO)c1C (stereo not given)	-0.4	-0.3
Cc1ccc(NC(=O)Cn2c(-n3nc(C)cc3C)nc3c(c2=O)CCCC3)cc1	-4.0	-7.6
CNC(=O)C(C)CN(C)C(=O)Nc1ccccc1N(C)C1CCCC1 (stereo not given)	9.3	8.9
CC(OC(=O)c1cccc(Cl)c1Cl)C(N)=O (stereo not given)	4.1	2.7
O=C(NC1CCCCC1)c1cccnc1-n1cccn1	2.3	1.9
S=c1[nH]nc(Cc2csc(-c3ccccc3)n2)n1CC1CCCO1 (stereo not given)	10.8	7.3
CCS(=O)CCc1nc(CC(C)C)nn1-c1ccc2c(c1)OCCO2 (stereo not given)	12.4	7.0
COc1cccc(CNC(=O)C(=O)NCCC2CCCCN2S(=O)(=O)c2ccc(F)c(C)c2)c1 (stereo not given)	12.0	6.9
Cc1c(C(=O)N2CCN(C(=O)c3ccccc3Cl)CC2)cc(-c2ccccc2)n1-c1ccccc1Cl	-10.9	-15.8
COc1ccc(CCN(C)C(=O)c2cccc(SC(F)F)c2)cc1OC	-9.1	-13.6
Cn1nc(C2CCN(C(=O)C3COCCN3)CC2)n(-c2ccccc2)c1=O (stereo not given)	24.2	11.1
Cc1ccc(S(C)(=O)=O)cc1N1C(O)c2ccccc2S1(=O)=O (stereo not given)	-0.9&6.6	8.6&5.3
CN(C)CCNC(=O)c1c(O)c2c([nH]c1=O)CCCC2	27.6	17.1
Cc1ccc(NC(=O)CN2CC(C)SC2=NC2CCCCC2)cc1 (stereo not given)	1.1	0.3
COc1cc(C2NC(=O)NC(C)=C2C(=O)OC2CCC(C)CC2)ccc1O (stereo not given)	-2.7	-12.1
CS(=O)(=O)NCCn1nc(-c2ccco2)ccc1=O	-2.6	-4.7
Cc1ccnc(SCc2cn3c(C)cccc3n2)n1	-3.0	-3.8

Shown bar-delimited: 13 of the compounds above.
molecule | NPYLR7 agonist | NPYLR7 agonist max-min
O=C(NC1CCCCC1)c1cccnc1-n1cccn1 | 2.3 | 1.9
S=c1[nH]nc(Cc2csc(-c3ccccc3)n2)n1CC1CCCO1 (stereo not given) | 10.8 | 7.3
CCS(=O)CCc1nc(CC(C)C)nn1-c1ccc2c(c1)OCCO2 (stereo not given) | 12.4 | 7.0
COc1cccc(CNC(=O)C(=O)NCCC2CCCCN2S(=O)(=O)c2ccc(F)c(C)c2)c1 (stereo not given) | 12.0 | 6.9
Cc1c(C(=O)N2CCN(C(=O)c3ccccc3Cl)CC2)cc(-c2ccccc2)n1-c1ccccc1Cl | -10.9 | -15.8
COc1ccc(CCN(C)C(=O)c2cccc(SC(F)F)c2)cc1OC | -9.1 | -13.6
Cn1nc(C2CCN(C(=O)C3COCCN3)CC2)n(-c2ccccc2)c1=O (stereo not given) | 24.2 | 11.1
Cc1ccc(S(C)(=O)=O)cc1N1C(O)c2ccccc2S1(=O)=O (stereo not given) | -0.9&6.6 | 8.6&5.3
CN(C)CCNC(=O)c1c(O)c2c([nH]c1=O)CCCC2 | 27.6 | 17.1
Cc1ccc(NC(=O)CN2CC(C)SC2=NC2CCCCC2)cc1 (stereo not given) | 1.1 | 0.3
COc1cc(C2NC(=O)NC(C)=C2C(=O)OC2CCC(C)CC2)ccc1O (stereo not given) | -2.7 | -12.1
CS(=O)(=O)NCCn1nc(-c2ccco2)ccc1=O | -2.6 | -4.7
Cc1ccnc(SCc2cn3c(C)cccc3n2)n1 | -3.0 | -3.8

Additional compounds follow.
SMILES	NPYLR7 agonist	NPYLR7 agonist max-min
O=C(c1cccnn1)N1CCc2[nH]nc(-c3ccc(-c4ccccc4)cc3)c2C1	-0.9	-8.1
Cc1nc(CN(Cc2ccc3c(C)cc(=O)oc3c2)C(C)C)no1	-7.4	-11.4
COc1ccc(Br)cc1S(=O)(=O)N1CCCN(Cc2cc(=O)c(OCc3ccc(SC)cc3)co2)CC1	19.2	10.7
Cc1cccc(NC(=O)c2ccccc2SC(F)F)n1	18.5	14.7
Cc1c(C)n2c3c(=O)n(Cc4ccccc4F)c(=O)n(C)c3nc2n1CC(C)C	-3.7	10.2
Cc1cc2cccc(C(=O)N3CCC(Cn4cc(CO)nn4)CC3)c2o1	-21.3	-22.7
COc1cc2c(cc1OC)CN(C(=O)CC1C(=O)NCCN1Cc1ccccn1)CC2 (stereo not given)	21.6	9.4
COc1cc(C)ccc1Oc1nc(C)nc(N2CCC(C(C)=O)CC2)c1N	16.3	5.4
COCCN(Cc1ccon1)CC1CCCN(C2Cc3ccccc3C2)C1 (stereo not given)	12.1	5.0
O=C(NNc1c(Cl)cc(Cl)cc1Cl)C1CCC1	1.0	0.0

Compound activity: PubChem BioAssay, Fisher Drug Discovery Resource Center
